Assay outcomes (PubChem)
Mtb growth: M. tuberculosis H37Rv growth inhibitors, H37Rv strain (AID 1626) | inhibition, % at 10 µM; hits with a dose series show IC50 in µM | M. tuberculosis H37Rv growth inhibition; higher % means a stronger effect | actives 0.95% (n = 220,000);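 active means confirmed in a dose series; inconclusive means inhibition above 80% but not taken into the dose series; inactive means below 80% or under 30% at every dose of the series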;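 further: bacteria incubated seven days before Alamar blue readout; 0% = bacteria only wells and 100% = bacteria with antibiotic wells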
Mtb bLac sens: beta-lactam sensitization of Mtb H37Rv. M. tuberculosis H37Rv growth with meropenem, percent inhibition; hits of this screen are not shown here. inhibition, % at 25 µM. actives 0.27% (n = 330,000);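 active means about 74% or more and at least 40 points above the plate without the antibiotic, then above 30% in a dose series; inconclusive means first-round hits that could not be retested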;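 further: growth measured after seven days incubation then overnight dye step; 0% = bacteria only wells and 100% = bacteria with antibiotic; twin plates without the antibiotic show which effects depend on it; some results filed as inactive read as strong as hits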
Arbovirus inh: blocks arbovirus infection | actives 0.37% (n = 200,000) | arbovirus infection cell-based antiviral screen | AID 1251 | inhibition, % at 10 µM;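 active means inhibition from about 30%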;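 further: bluetongue infection of BSR cells; cell survival read as ATP light after 72 h; 0% = infected wells without compound and 100% = uninfected wells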
YopH PTP inh: inhibitors of Yersinia enterocolitica YopH tyrosine phosphatase; inhibition, %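 (about 10 µM by stock and volumes)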; actives 0.16% (n = 140,000); AID 898; fluorescence Ex485/Em525;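 active means inhibition of 50% or more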;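 further: controls were vehicle for no effect and minimum signal wells for full effect; inactives centre near -20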
RecA splice inh: Mtb RecA intein splicing inhibition; actives 0.75% (n = 290,000); AID 2221; cell-free RecA intein splicing, fluorescence; inhibition, %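 (about 9 µM by stock and volumes)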; in the data active means inhibition above about 30%; inconclusive means no clear call, values can overlap the other calls;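 further: 0% = vehicle wells and 100% = reference inhibitor control wells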
Target sequence (P9WHJ3 whole entry, looked up, canonical isoform): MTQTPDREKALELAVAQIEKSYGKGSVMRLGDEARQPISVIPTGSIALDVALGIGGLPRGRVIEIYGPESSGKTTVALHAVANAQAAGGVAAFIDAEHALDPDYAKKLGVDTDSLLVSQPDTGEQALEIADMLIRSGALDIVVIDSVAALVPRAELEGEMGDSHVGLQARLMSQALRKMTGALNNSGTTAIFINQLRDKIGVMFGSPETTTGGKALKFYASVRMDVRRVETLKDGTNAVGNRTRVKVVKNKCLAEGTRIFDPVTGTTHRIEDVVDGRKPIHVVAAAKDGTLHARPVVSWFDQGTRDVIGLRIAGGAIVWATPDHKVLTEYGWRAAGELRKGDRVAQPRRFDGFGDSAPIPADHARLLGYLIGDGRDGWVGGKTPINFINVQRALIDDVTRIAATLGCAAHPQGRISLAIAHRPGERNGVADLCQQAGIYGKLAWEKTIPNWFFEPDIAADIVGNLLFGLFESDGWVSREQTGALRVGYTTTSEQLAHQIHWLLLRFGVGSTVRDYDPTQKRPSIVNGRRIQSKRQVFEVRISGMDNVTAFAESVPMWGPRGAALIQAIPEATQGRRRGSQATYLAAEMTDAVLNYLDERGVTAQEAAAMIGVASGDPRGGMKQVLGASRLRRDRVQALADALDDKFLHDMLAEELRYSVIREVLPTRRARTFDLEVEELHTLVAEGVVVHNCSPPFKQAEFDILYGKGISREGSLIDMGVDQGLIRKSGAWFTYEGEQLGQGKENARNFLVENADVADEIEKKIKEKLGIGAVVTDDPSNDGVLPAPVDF
Arbovirus inh repeat: second read-out of Arbovirus inh, no call of its own (marks repeat the call); inhibition, %; measured here: 10K subset replicate screen; many hits read low in the repeat;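 first of two repeat runs on a subset; 0% = infected and 100% = uninfected wells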
The depositor's hits bear a star; ? = inconclusive; . = no result given. A portion of the library; rates above refer to the full screens.

SMILES | Mtb growth | Mtb bLac sens | Arbovirus inh | YopH PTP inh | RecA splice inh | others
O=C1N=C(N2CCN(c3ccccc3)CC2)S/C1=C\c1cn[nH]c1-c1ccccc1 | 2% | -2 | 1 | -24 | -0.5
CCc1ccc(C(=O)OCC(=O)NCC(F)(F)F)cc1 | 6% | -4 | 0 | . | 11
Cc1ccc(C(=O)Nc2cccc(NC(=O)c3ccc(C)o3)n2)o1 | . | -15 | . | . | -1.7
C=CCSc1nc(C)c2cc(C)cc(C)c2n1 | -6% | 2 | 1 | 1 | 2.4
O=[N+]([O-])/C(=C\Nc1ccc(F)cc1F)S(=O)(=O)c1ccccc1 | . | -1 | . | . | 3.6
C[C@@H]1CC[C@@]2(OC1)O[C@H]1C[C@H]3[C@@H]4CC=C5C[C@@H](O)[C@H](O)C[C@]5(C)C4CC[C@]3(C)[C@H]1[C@@H]2C (some centres not stated) | . | 2 | . | . | 1.7
O=C(CSc1nc2ccccc2c(=O)n1NC(=O)Cc1ccccc1)NCc1ccco1 | -8% | 13 | 5 | -7 | -0.7
CN1/C(=C/c2cccc[n+]2CCO)Sc2ccccc21 | . | -9 | . | . | 0.6
O=C(COc1ccccc1Cl)Nc1ccccc1C(=O)N1CCOCC1 | . | 15 | . | . | 1.4
Cn1c(SCC(=O)NCc2ccc3c(c2)OCO3)nnc1C1COc2ccccc2O1 (configuration not stated) | -7% | -1 | -9 | -25 | -0.3
O=C(Nc1cccc(NC(=O)c2ccc(-c3cccc(Br)c3)o2)c1)c1ccco1 | 22% | 84 | 3 | -50 | 7.7
Cc1nc2ccccc2c(=O)n1NC(=O)c1cccc(Cl)c1 | . | -5 | . | . | 0.2
CCOc1cccc(C(=O)Nc2cccc(C(=O)NC(C)(C)C)c2)c1 | -1% | -9 | -8 | -19 | -0.6
O=C(O)c1ccc(/C=N\Nc2ccccn2)cc1 | . | -3 | . | . | 6.4
Cc1ccc(-c2cc(-c3ccc4c(c3)OCO4)c(C#N)c(N)n2)o1 | -11% | -5 | 0 | -5 | -10
CCC(NC(=O)c1ccccc1NC(=O)c1ccccc1)C(=O)NNC(=O)c1cccnc1 (configuration not stated) | -9% | -6 | . | . | 2.9
C/C(=N\NC(=O)c1cccc(S(=O)(=O)N2CCOCC2)c1)c1ccc(C#N)cc1 | . | -8 | . | . | -0.5
C/C(CC(=O)N1CCCC1)=N\NC(=O)c1cc2ccccc2cc1O | 10% | 1 | . | . | -37
CCOCCc1nnc(NC(=O)c2cccc(F)c2)s1 | 1% | 7 | 8 | -52 | -2.6
Cc1cccc(NC(=O)c2ccccc2OCC(=O)c2ccccc2)c1 | 5% | 1 | 10 | 0 | -0.2
COc1ccc(-c2cc(C(=O)O)sc2C)cc1 | 0% | 4 | 1 | . | -0.5
Cc1cc(Nc2cccc(F)c2)n2nc(C)nc2n1 | -9% | 11 | 6 | -34 | 0.9 | Arbovirus inh repeat=2
Cc1cc(=O)n2nc(N3CCC(C(=O)NCc4ccc(F)cc4)CC3)sc2n1 | . | -4 | . | . | 3.7
CC(C)OP(=O)(OC(C)C)C(O)c1cccc([N+](=O)[O-])c1 (configuration not stated) | -15% | -13 | . | . | -1.6
C[C@@H](NC(=O)[C@@H]1Cc2ccccc2CN1C(=O)OC(C)(C)C)C(=O)NCC1CCCO1 (some centres not stated) | . | 1 | . | . | 1.8

Other compounds.
SMILES | Mtb growth | Mtb bLac sens | Arbovirus inh | YopH PTP inh | RecA splice inh | others
CCOC(=O)N1CCN(c2cc(=O)n(-c3cccc(Br)c3)c(=O)[nH]2)CC1 | -4% | 7 | 5 | -21 | 0.5 | Arbovirus inh repeat=6
CC(=O)OC1CC(c2cc(C(C)(C)C)c(O)c(C(C)(C)C)c2)=NO1 (configuration not stated) | 35% | 0 | . | . | -1.0
Cc1cc2nnc(SCC(=O)NCC3CCCO3)n2c2ccccc12 (configuration not stated) | -7% | 3 | -5 | . | -0.8
COc1ccc(-c2c(C3=CCCCC3)oc3ccc(-c4ccc5c(c4)OCO5)cc23)cn1 | -1% | -6 | . | . | 3.6
COc1cccc(N2C(=NC(=O)C3CCCO3)SC3CS(=O)(=O)CC32)c1 (configuration not stated) | . | -6 | . | . | 1.1
COc1ccc(N2CCN(C(=O)COC(=O)CNC(=O)c3ccc(Cl)cc3Cl)CC2)cc1 | . | 1 | . | . | -1.6
Cc1ccc(S(=O)(=O)CCC(=O)N(C)C2CCCCC2)cc1 | . | -1 | . | . | -2.3
Cc1ccc(C(=O)OCC(=O)N2CC(=O)Nc3ccccc32)s1 | -4% | -1 | 1 | -18 | 2.1
CN(C)S(=O)(=O)c1ccc(C(=O)NCC(=O)N/N=C/c2ccccc2)cc1 | -2% | -1 | 3 | . | 1.1
CCn1c(Cn2nnc(-c3ccccc3)n2)nnc1SCC(=O)Nc1cccc(C)c1C | 20% | 1 | 3 | -38 | -3.0
COC(=O)c1ccc(N2CCN(C)CC2)c(NC(=O)c2ccc(-c3ccc(Cl)cc3)o2)c1 | . | ? | . | . | 0.6
O=S(=O)(Nc1ccc(N2CCOCC2)cc1)c1ccc(Cl)s1 | -3% | -3 | 10 | -5 | -7.8
COC(=O)c1ccc2c(=O)n(C3CCCCC3)c(SCC#N)nc2c1 | -6% | 1 | -2 | -43 | -1.2
Fc1ccc(CSc2nc3ccccc3[nH]2)cc1 | -7% | -2 | 4 | 3 | 0.3
COc1ccc(-c2c(C#N)c(SCC(=O)c3cc4ccccc4oc3=O)nc(C)c2C(=O)Nc2ccccc2)cc1 | 12µM* | 98 | 4 | -33 | 1.0
Cc1ccc(Cn2c(C)nc3ccc([N+](=O)[O-])cc3c2=O)cc1 | . | 7 | . | . | 1.1
Cn1c(SCC#N)nc2ccccc2c1=O | -9% | -6 | . | . | -1.9
O=C(O)c1ccc(N/N=C/C2=Cc3ccccc3OC2)cc1 | 6% | 5 | . | . | -2.4
CCCN(CCC)CCCNC(=O)c1ccc2c(c1)N(CC)C(=O)c1ccccc1S2=O (configuration not stated) | -3% | -6 | 7 | -38 | -3.2
CCCCNC(=O)CN(CCc1ccccc1)S(C)(=O)=O | 2% | -4 | 5 | -18 | -1.7
Cc1ccc(C(=O)ON=C2CCN(S(=O)(=O)c3ccccc3)CC2)cc1 | -4% | 4 | 4 | -32 | 3.5
CCOC(=O)C1(CCOc2ccccc2)CCN(C2Cc3ccccc3C2)CC1 | -9% | 25 | -14 | . | -0.5
CCC(C)[C@@H](C(=O)Nc1ccc2c(c1)OCO2)N1Cc2ccccc2C1=O (some centres not stated) | 0% | 3 | 2 | -50 | 6.2 | Arbovirus inh repeat=-6
COC(=O)C(NC(C)=O)(Nc1sc2c(c1C(N)=O)CCCC2)C(F)(F)F (configuration not stated) | 2% | 1 | 15 | -7 | 0.7
O=C(CN1CCN(Cc2ccccc2)CC1)Nc1ccc(Br)cc1 | . | 7 | . | . | -1.1

Remaining list, next part:
SMILES | Mtb growth | Mtb bLac sens | Arbovirus inh | YopH PTP inh | RecA splice inh | others
COc1cccc(CNS(=O)(=O)c2ccc3c(c2)N(C(C)=O)CCO3)c1 | . | 0 | . | . | -0.6
Nc1ccc(C(=O)NC2CCSc3ccccc32)cc1[N+](=O)[O-] (configuration not stated) | . | 12 | . | . | 2.4
CCCCNC(=S)N(CCN(CC)CC)Cc1cc2cc3c(cc2[nH]c1=O)OCO3 | . | -3 | . | . | -1.0
COCCNC(=O)c1cc(S(=O)(=O)N2CCCCC2)ccc1N1CCOCC1 | . | 3 | . | . | -0.2
OC1(c2ccc(F)cc2)CCN(Cc2nnnn2Cc2cccs2)CC1 | -2% | -6 | -1 | -6 | 1.3
COCC(=O)N1CCC(Oc2ccc(C(=O)N3C[C@H]4CC[C@H]3C4)cc2)CC1 | . | -5 | . | . | 1.4
Cc1cccc(C)c1N1CCN(S(=O)(=O)N2CCOCC2)CC1 | -2% | . | 6 | -62 | 0.6
COc1ccc(Sc2nc(-c3ccccn3)ncc2OC)cc1 | ? | 82 | -18 | . | 5.6
CC(C)Oc1ncnc2c1[nH]c1ccccc12 | 3% | 3 | . | . | .
NC(N)=Nc1cc2ccccc2c2ccccc12 | 17% | 47 | . | . | 0.6
Cc1ccc(-c2nc(CS(=O)CC(=O)N3CCN(c4ccc(F)cc4)CC3)c(C)o2)cc1 (configuration not stated) | . | 14 | . | . | 1.4
Cc1ccc(C)c(CSc2nnc(-c3ccccn3)n2N)c1 | -3% | -4 | 0 | -26 | -1.7
CC1CC(Nc2ccccc2)c2ccccc2N1C(=O)c1cccnc1 (configuration not stated) | -2% | 0 | -11 | -15 | 3.2
CN(Cc1nccn1C)C(=O)c1ccc2nc(Cc3ccccc3F)oc2c1 | . | 1 | . | . | -1.2
CCCCN(Cc1cc2cc(OC)ccc2[nH]c1=O)C(=O)c1ccco1 | 6% | 0 | 8 | -12 | 3.1
CC(=O)NCCn1c(SCC(=O)NCCC(C)C)nc2ccccc2c1=O | -8% | 1 | 4 | 4 | 2.2
CCn1c(=NC(=O)CS(=O)(=O)c2ccc(F)cc2)sc2cccc(OC)c21 | . | -5 | . | . | 8.0
CCOC1CCCCC1NS(=O)(=O)c1ccc(Cl)cc1 (configuration not stated) | 0% | 10 | -7 | -47 | -0.2 | Arbovirus inh repeat=-4
O=C(O)c1ccccc1N(Cc1ccccc1)C(=O)CO/N=C/c1ccccc1 | 4% | 3 | 8 | -23 | 2.0
O=C(CCC(=O)c1ccccc1)Nc1ccccc1 | . | -3 | . | . | 2.4
N#C/C(=N\Nc1ccc(Br)cc1)C(=N)N1CCOCC1 | 5% | 1 | 1 | . | 4.2
Cn1c(SCC(=O)Nc2cccc(S(=O)(=O)NC3=NCCCCC3)c2)nnc1-c1ccccc1 | 0% | -4 | 5 | . | 1.9
Cc1cc(C(=O)NCC(c2cccs2)N2CCOCC2)ccc1[N+](=O)[O-] (configuration not stated) | . | -15 | . | . | 0.1
COc1cccc(-n2c(SCC(=O)NCCC3=CCCCC3)nc3n[nH]c(C)c3c2=N)c1 | -3% | -4 | -11 | -33 | 2.3
O=C(CNC(=O)c1ccc(Br)cc1)NCC(=O)OCc1ccc(Cl)cc1 | -3% | . | -3 | . | 0.0

New compounds follow:
SMILES | Mtb growth | Mtb bLac sens | Arbovirus inh | YopH PTP inh | RecA splice inh | others
Cc1cccc(NC(=O)Cn2c(=O)oc3cc(S(=O)(=O)N4CCCC4)ccc32)n1 | . | -1 | . | . | -2.6
O=C(Nc1nnc(C2=COCCO2)o1)c1ccc([N+](=O)[O-])cc1 | . | 83 | . | . | 3.0
O=C(O)c1ccc(CSc2nnc(SCc3ccccc3)s2)cc1 | 17% | -3 | 4 | -31 | -0.6
CCCc1c(C(=O)N/N=C/c2ccc(OCc3ccccc3)c(OC)c2)nnn1-c1nonc1N | . | 2 | . | . | 1.1
COc1ccc(/C=N/Nc2ccccc2C(=O)O)cc1 | . | 9 | . | . | -4.4
O=C(O)CC(Cc1ccc(Cl)cc1)C(=O)Nc1ccc([N+](=O)[O-])cc1 (configuration not stated) | 7% | 7 | 22 | . | 0.1
CC(C)NC(=S)NN=C1c2ccccc2-c2ccccc21 | 0% | . | -3 | . | 2.0
Cc1cccc(-n2c(=O)c3c(n4cnnc24)-c2ccccc2CC32CCCCC2)c1 | 5% | -4 | -20 | -6 | 2.4
CCCCOc1ccc(CONS(=O)(=O)c2ccc(NC(C)=O)cc2)cc1Cl | 18% | 5 | -41 | -10 | 3.8
CCOc1cc(S(=O)(=O)NC2CC(C)(C)NC(C)(C)C2)ccc1Cl | . | 4 | . | . | -1.4
CCN(C(=O)CSc1nnc(-c2ccncc2)n1C)C1CCS(=O)(=O)C1 (configuration not stated) | 4% | -7 | -1 | -4 | -1.2
CCCNC(=O)C(=O)NCC(c1ccc2c(c1)OCO2)N1CCN(c2ccc(F)cc2)CC1 (configuration not stated) | . | -3 | . | . | -0.6
O=c1cc(NC2CCCCC2)[nH]c(=O)[nH]1 | . | -4 | . | . | 2.2
O=C(Nc1ccc(S(=O)(=O)N2CCCC2)cc1)c1cccnc1 | 0% | -2 | 0 | -7 | 0.0

Molecules above containing a cyano group:
SMILES | Mtb growth | Mtb bLac sens | Arbovirus inh | YopH PTP inh | RecA splice inh | others
Cc1ccc(-c2cc(-c3ccc4c(c3)OCO4)c(C#N)c(N)n2)o1 | -11% | -5 | 0 | -5 | -10
C/C(=N\NC(=O)c1cccc(S(=O)(=O)N2CCOCC2)c1)c1ccc(C#N)cc1 | . | -8 | . | . | -0.5
COC(=O)c1ccc2c(=O)n(C3CCCCC3)c(SCC#N)nc2c1 | -6% | 1 | -2 | -43 | -1.2
COc1ccc(-c2c(C#N)c(SCC(=O)c3cc4ccccc4oc3=O)nc(C)c2C(=O)Nc2ccccc2)cc1 | 12µM* | 98 | 4 | -33 | 1.0
Cn1c(SCC#N)nc2ccccc2c1=O | -9% | -6 | . | . | -1.9
N#C/C(=N\Nc1ccc(Br)cc1)C(=N)N1CCOCC1 | 5% | 1 | 1 | . | 4.2
